KCNQ2 block: KCNQ2 channel blockers in CHO-K1 cells – cell-based, FluxOR thallium flux, B-score, primary screen (AID 2156). 20 min; active compounds read low; only compounds with negative scores are shown here; some inactives read as strong as hits. B-score at 10 µM. actives 1.1% (n = 310,000);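 active means fluorescence ratio B-score at most minus 3 library SDs, with starting brightness B-score within 2 library SDs, cut at about -5.5 in these data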
Target sequence (O88943 whole entry, looked up): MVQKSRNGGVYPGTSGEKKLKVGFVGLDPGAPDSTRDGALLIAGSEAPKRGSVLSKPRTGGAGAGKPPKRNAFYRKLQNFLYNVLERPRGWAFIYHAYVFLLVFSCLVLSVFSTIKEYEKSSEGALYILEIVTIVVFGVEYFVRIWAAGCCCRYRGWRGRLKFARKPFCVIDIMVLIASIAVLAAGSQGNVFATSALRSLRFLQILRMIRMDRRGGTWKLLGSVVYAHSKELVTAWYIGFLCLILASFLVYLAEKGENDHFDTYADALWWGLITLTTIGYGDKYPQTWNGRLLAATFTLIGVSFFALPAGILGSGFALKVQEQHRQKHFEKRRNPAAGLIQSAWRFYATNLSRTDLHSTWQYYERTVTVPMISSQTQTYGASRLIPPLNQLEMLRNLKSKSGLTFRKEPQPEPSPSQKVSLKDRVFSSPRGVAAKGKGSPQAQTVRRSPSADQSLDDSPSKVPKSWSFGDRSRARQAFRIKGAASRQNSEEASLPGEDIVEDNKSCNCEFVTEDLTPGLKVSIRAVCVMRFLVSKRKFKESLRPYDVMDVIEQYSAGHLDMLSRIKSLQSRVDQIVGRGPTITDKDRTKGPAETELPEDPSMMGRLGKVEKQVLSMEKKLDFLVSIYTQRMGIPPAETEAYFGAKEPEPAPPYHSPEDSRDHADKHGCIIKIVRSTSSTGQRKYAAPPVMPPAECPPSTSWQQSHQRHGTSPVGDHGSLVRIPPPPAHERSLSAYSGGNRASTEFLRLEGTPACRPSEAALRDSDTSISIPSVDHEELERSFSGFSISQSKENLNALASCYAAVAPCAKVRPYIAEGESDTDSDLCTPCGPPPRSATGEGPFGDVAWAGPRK
KCNQ2 block baseline: recorded beside KCNQ2 block, whose call it bears; B-score; measured here: initial fluorescence intensity artifact check;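 brightness before thallium and not channel activity; 0 = typical well and far values either way flag optical interference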
Numbers without * were called inactive; i = inactive. These rows are one share of the data; rates above refer to the full screens.

SMILES | KCNQ2 block | KCNQ2 block baseline
CS(=O)(=O)N(Cc1ccco1)CC(O)Cn1cc(C=O)c2ccccc21 (stereo unspecified) | i | -0.72
O=C(O)COc1ccc(/C=N/NC(=O)COc2nsnc2N2CCOCC2)cc1 | i | -1.1
Cc1csc(SCC(=O)Nc2ccc3c(c2)OCCO3)n1 | i | -1.2
CN1CCC(N2CCCC(C(=O)O)C2)CC1 (stereo unspecified) | i | 0.53
COc1ccc(C(CC(=O)N2CCCC(C)C2)c2c(OC)cc(OC)c3c(-c4ccccc4)cc(=O)oc23)cc1 (stereo unspecified) | i | 0.06
O=C(NCc1ccc(Cl)cc1)c1ccc(CNc2c(N3CCOCC3)c(=O)c2=O)cc1 | i | 0.97
S=c1[nH]nc(-c2ccc(Cl)cc2)n1-c1ccc2c(c1)OCCO2 | i | 1.4
COc1ccc(OCC(O)CNS(=O)(=O)c2ccc(C)cc2)cc1 (stereo unspecified) | i | 1.1
Cn1c(=O)[nH]c(=O)c2c1nc(N1CCC(Cc3ccccc3)CC1)n2Cc1ccccc1 | i | 3.3
COc1ccc(C2CC(c3ccc4ccccc4c3)=NN2C(=O)CNC2CCCCC2)cc1 (stereo unspecified) | i | -1.1
CCC(C(=O)OC)n1cnc2scc(-c3ccc(C)cc3)c2c1=O (stereo unspecified) | i | 0.7
O=C(COc1ccccc1[N+](=O)[O-])Nc1ccccc1N1CCCCC1 | i | -1.7
Cc1ccc(NC(=O)c2cccc(S(=O)(=O)N3CCN(c4ccccc4)CC3)c2)nc1 | i | -0.95
CCc1ccc(NC(=O)c2cc(S(=O)(=O)N3CCCC3)c[nH]2)cc1 | i | -0.79
Cc1ccc(S(=O)(=O)N(C)C)cc1NC(=O)CSc1ncc(C(F)(F)F)cc1Cl | i | -1.3
O=[N+]([O-])c1ccc2ccn(C3OCC(O)C(O)C3O)c2c1 (stereo unspecified) | i | 0.08
Cc1cc(C)c(S(=O)(=O)Cc2ccccc2)c(OC(C)C)n1 | i | -1.7
COC(=O)C1=C(C)N(c2ccc(OC)cc2)C(=O)/C1=C\c1cccs1 | i | 0.12
O=C(CN1CCN(S(=O)(=O)c2ccc(F)cc2)CC1)Nc1ccccc1F | i | -0.24
COc1ccc([N+](=O)[O-])cc1NC(=O)CSc1ncccn1 | i | -0.44
C/C(=N\NC(=O)Cn1ccc(C(F)(F)F)n1)c1ccc(N2CCOCC2)cc1 | i | -0.7
Cc1cccc(/C=N/NC(=O)c2ccncc2)n1 | i | 1.1
CC1(C)CC(=O)C2=C(C1)OC(N)=C(C#N)[C@@]21C(=O)N(CC(N)=O)c2ccccc21 | i | 1.4
COc1cccc(C(=O)C(C#N)=C(SC)SC)c1 | i | -0.01
Cc1ccc2cc(CCNC(=O)c3cccc([N+](=O)[O-])c3)c(=O)[nH]c2c1C | i | 1.1

A draw from above in order of length of the SMILES, smallest number first.
SMILES | KCNQ2 block | KCNQ2 block baseline
CCC(C(=O)OC)n1cnc2scc(-c3ccc(C)cc3)c2c1=O (stereo unspecified) | i | 0.7
O=C(COc1ccccc1[N+](=O)[O-])Nc1ccccc1N1CCCCC1 | i | -1.7
CC1(C)CC(=O)C2=C(C1)OC(N)=C(C#N)[C@@]21C(=O)N(CC(N)=O)c2ccccc21 | i | 1.4
COc1ccc(C(CC(=O)N2CCCC(C)C2)c2c(OC)cc(OC)c3c(-c4ccccc4)cc(=O)oc23)cc1 (stereo unspecified) | i | 0.06

(cont.)
SMILES | KCNQ2 block | KCNQ2 block baseline
O=C(Nc1ccccn1)c1ccc(Cl)c(S(=O)(=O)N2CCCCCC2)c1 | i | 1.1
CC(=O)c1sc(NC(=O)CS(=O)(=O)c2ccc(F)cc2)nc1C | i | -0.57
CC(=O)N1C(C)(C)CC(=NOC(=O)c2ccc(C)cc2)CC1(C)C | i | -0.02
O=C(Nc1ccc(Cl)cc1)c1cccnc1N1CCCCC1 | i | 0.71
COc1ccc(S(=O)(=O)n2nc(OCc3cccs3)cc2N)cc1 | i | 0.52
Cc1nn(-c2ccccc2)c(Cl)c1C(=O)Nc1c(C)n(C)n(-c2ccccc2)c1=O | i | 0.2
O=C(c1ccc(Cl)cc1Cl)N1CCSCC1 | i | 0.53
Cc1cc([N+](=O)[O-])ccc1NC(=O)c1ccco1 | i | -0.14
CCCCN(C(=O)C1CC(=O)N(Cc2ccc(C)cc2)C1)c1c(N)n(CCCC)c(=O)[nH]c1=O (stereo unspecified) | i | 0.88
COc1ccc(C(=O)Nc2cccnc2Cl)cc1OC | i | 0.22
Cc1cccc(C(=O)OCc2cnc(Cl)s2)c1 | i | -0.49
COc1ccc(C)cc1S(=O)(=O)Nc1ccncc1 | i | 1.7
O=C(CSc1nc2ncc(Cl)cc2[nH]1)c1ccc2c(c1)OCO2 | i | -0.24
C=C(C)[C@@H]1CC[C@]2(C(=O)O)CC[C@]3(C)C(CCC4[C@@]5(C)CC[C@H](O)C(C)(C)C5CC[C@]43C)C12 (stereo partly specified) | i | 2.3
Cc1nnc(N(C)C(=O)c2cccnc2)s1 | i | -0.55
Cc1ccc(C)c(NC(=O)CN(C)C(=O)Cn2c(=O)oc3ccccc32)c1 | i | -0.01
NS(=O)(=O)c1ccc(CCNC(=O)CN2C(=O)c3ccccc3S2(=O)=O)cc1 | i | -0.06
C/C(=N\Nc1ccc(Cl)c(C(=O)O)c1)c1ccc(N2CCOCC2)cc1 | i | 0.6
Nc1nccnc1C(=O)OCc1nc2sc3c(c2c(=O)[nH]1)CCCC3 | i | 1.6
Clc1ncc(CN2CCN(c3ccccc3)CC2)s1 | i | 0.55
COc1ccc(C(=O)NCc2nnc(SCC(=O)Nc3ccccc3F)o2)cc1 | i | -0.08
O=[N+]([O-])c1cc(-c2ccc(/C=N\n3cnnc3)o2)cc([N+](=O)[O-])c1 | i | -1.9
COCC(=O)Nc1ccc(S(=O)(=O)N2CCCC2)cc1 | i | -1.4
COc1cc(C(=O)OC(C)CN2C(C)CCCC2C)cc(OC)c1OC (stereo unspecified) | i | -1.7
Cc1ccc(NC(=O)CN(C)C(=O)COc2cccc3cccnc23)cc1 | i | 2.3

Single entries from the results shown.
Cc1cc([N+](=O)[O-])ccc1NC(=O)c1ccco1 – KCNQ2 block baseline = -0.14
Cc1nn(-c2ccccc2)c(Cl)c1C(=O)Nc1c(C)n(C)n(-c2ccccc2)c1=O – KCNQ2 block baseline = 0.2

Entries of single compounds as entered above. Order of values: KCNQ2 block, KCNQ2 block baseline
Cc1ccc(NC(=O)CN(C)C(=O)COc2cccc3cccnc23)cc1 reads i, 2.3
Cc1cccc(C(=O)OCc2cnc(Cl)s2)c1 reads i, -0.49
CCCCN(C(=O)C1CC(=O)N(Cc2ccc(C)cc2)C1)c1c(N)n(CCCC)c(=O)[nH]c1=O (stereo unspecified) reads i, 0.88
Cc1ccc(C)c(NC(=O)CN(C)C(=O)Cn2c(=O)oc3ccccc32)c1 reads i, -0.01

(continued)
SMILES | KCNQ2 block | KCNQ2 block baseline
CC(=O)c1ccc(OCC(=O)N2CCCC(Nc3ccc(C)c(C)c3)C2)cc1 (stereo unspecified) | i | 0.4
CC(C)c1ccccc1NC(=S)N1CCN(S(=O)(=O)c2cccs2)CC1 | i | 0.31
Cc1ccc(CNC(=O)/C(C#N)=C\c2ccc(N(C)C)cc2)cc1 | i | 0.19
Cc1[nH]n(C(N)=S)c(=O)c1N=Nc1cccc(Cl)c1 | i | 0.43
Cc1cc(C)cc(NC(=O)[C@H](NC(=O)[C@@H]2Cc3ccccc3CN2)c2ccccc2)c1 | i | 1.3
COc1cc2[nH]c3ccccc3c2cc1C | i | -0.28
O=C(CCl)Nc1cccc(-c2cnc3ccccc3n2)c1 | i | 0.36
O=C(COC(=O)C1CC(=O)N(Cc2ccco2)C1)c1ccc(OC(=O)c2ccco2)cc1 (stereo unspecified) | i | 0.5
COc1ccc(-c2onc(C)c2-c2cnn(-c3ccccc3)c2)c(O)c1C | i | 0.51
COc1ccc(NC(=O)CN(C)S(=O)(=O)c2ccc3c(c2)n(C)c(=O)c(=O)n3C)cc1 | i | -0.06
O=C(c1ccc2ccccc2c1)N1CCN(c2ccc([N+](=O)[O-])c(N3CCOCC3)c2)CC1 | i | 0.88
Cc1ccc(N2C(=NC(=O)c3ccccc3)SC3CS(=O)(=O)CC32)cc1 (stereo unspecified) | i | -0.01
Nc1c(C(=O)Nc2cccc(F)c2)nnn1-c1cccc(C(F)(F)F)c1 | i | -0.04
COc1ccc2nc(N3C(=O)CC(Cc4ccc(Cl)cc4)C3=O)sc2c1 (stereo unspecified) | i | -2.2
Cc1cccc(C(=O)/C=C2/c3ccccc3CC(C)(C)N2C)c1 | i | 0.61
CCN(CCn1cccn1)C(=O)C1CCC(=O)N(CCc2cccc(F)c2)C1 (stereo unspecified) | i | 3.5
CN(C(=O)c1ccccc1C(=O)OCC(=O)c1ccc(Br)cc1)c1ccccc1 | i | -0.49
Cc1ccc(NC(=O)C(OC(=O)c2cnc(C)cn2)c2ccccc2)c([N+](=O)[O-])c1 (stereo unspecified) | i | 1.2
Cc1cc(C(=O)NNC(=O)CN2C(=O)NC(C)(c3ccccc3)C2=O)c(C)o1 (stereo unspecified) | i | -3.6
COc1ccc(-n2c(SCC(=O)NCC3CCCO3)nc3c(c2=O)SCC3)cc1 (stereo unspecified) | i | -0.79
COc1cc(OC)c(C2C(C(=O)Nc3ccc(C)cc3C)=C(C)Nc3ncnn32)cc1OC (stereo unspecified) | i | -2.4
Cc1ccc(N2CCN(S(=O)(=O)N3CCCCCC3)CC2)cc1Cl | i | 1.6
CCn1c(=O)n(CC(=O)NCc2ccco2)c(=O)c2ccccc21 | i | 0.63
Cc1ccccc1OCC(=O)Nc1ccccc1N1CCC(C)CC1 | -6.2* | 1*
COc1ccc(CNC(=O)CN(C(=O)c2snc(C(N)=O)c2N)c2ccc(F)cc2)cc1 | i | 0.59
The list continues.
SMILES | KCNQ2 block | KCNQ2 block baseline
CC(=O)Nc1ccc(NC(=O)CSc2nc(C)nc3sc(C)c(C)c23)cc1 | i | 2.4
CCOC(=O)c1c(NC(=O)CSc2nc3ccccc3c(=O)n2-c2ccc(F)cc2)sc(C(C)=O)c1C | i | 0.47
CC(Oc1ccc(Cl)cc1Cl)C(=O)NCc1ccncc1 (stereo unspecified) | i | -3
Cc1ccc(-c2nnnn2-c2ccccc2C(=O)O)cc1 | i | 0.65
O=C(c1ccc(F)cc1)N1CCN(C(=O)c2cccnc2)CC1 | i | -0.9
O=C(O)CC/C(=N/NC(=O)c1ccc(-c2ccccc2)cc1)c1ccccc1 | i | 0.63
O=S(=O)(NCc1ccco1)c1ccc2c(c1)Cc1ccccc1-2 | i | 1.3
CCC(=O)N=c1sc2cc(F)cc(F)c2n1C | i | -0.09
COc1ccc(NC(=O)Nc2ccc(O)c3ccccc23)cc1 | i | -0.85
Cc1[nH]nc2c1C(c1ccccc1)C1=C(CC(C)(C)CC1=O)N2 (stereo unspecified) | i | 2.4
CCOC(=O)C(=CNNc1c(C)csc1C(=O)OC)C(=O)OCC | i | -1.6
CCN(CC)CCN(Cc1cc2ccc(C)cc2[nH]c1=O)C(=O)NC1CCCCC1 | i | 0.43
CC(NCC(O)COc1ccc(S(=O)(=O)N2CCOCC2)cc1)c1ccccc1 (stereo unspecified) | i | 1.7
CCOC(=O)c1cc(-c2ccccc2)sc1NC(=O)CCN1C(=O)c2ccccc2C1=O | i | 0.36
CCOC(=O)c1sc(CS(=O)(=O)c2ccc(Cl)cc2)nc1C | i | -0.32
CCOC(=O)c1nnn(CC(=O)N2N=C(c3cccc4ccccc34)CC2c2ccccc2)c1C(=O)OCC (stereo unspecified) | i | -0.53
CC(=O)OCc1cc(-c2nc3ccccc3[nH]c2=O)nn1-c1ccc(Cl)cc1 | i | 0.98
COc1ccccc1CNC(=O)C(NS(=O)(=O)c1ccc2c(c1)oc(=O)n2C)C(C)C (stereo unspecified) | i | 4.8
Cc1nc(-c2nc(C(=O)NNS(C)(=O)=O)cs2)cs1 | i | -0.03
COc1ccccc1CNC(=O)CN1C(=O)COc2ccc(S(=O)(=O)N3CCCCC3)cc21 | i | 0.95
CC(=O)Nc1ccc(OCC(O)Cn2nc(C)nc2C)cc1 (stereo unspecified) | i | 0.21
Cc1ccc(-c2nc(NC(=O)CSc3ncn[nH]3)ns2)cc1 | i | 0.37
Cc1cc(Nc2cccc([N+](=O)[O-])c2)c2ccccc2n1 | i | -0.16
COc1ccc(OC)c(/C=C/C(=O)N2C(=O)c3cccc(N)c3C2=O)c1 | i | 0.19
O=C(Nc1ccc(N2CCCCC2)cc1)c1cccnc1 | i | 2.8

Structural class: the entries above with a cyano group
SMILES | KCNQ2 block | KCNQ2 block baseline
CC1(C)CC(=O)C2=C(C1)OC(N)=C(C#N)[C@@]21C(=O)N(CC(N)=O)c2ccccc21 | i | 1.4
COc1cccc(C(=O)C(C#N)=C(SC)SC)c1 | i | -0.01
Cc1ccc(CNC(=O)/C(C#N)=C\c2ccc(N(C)C)cc2)cc1 | i | 0.19

Additional entries follow:
SMILES | KCNQ2 block | KCNQ2 block baseline
CCC(C)(C)NC(=O)C(c1cccn1C)N(C(=O)Cn1nnc2ccccc21)c1ccccc1OC (stereo unspecified) | i | 0.35
CC(NC(=S)Nc1ccc(OC(F)F)cc1OC(F)F)C(C)(C)C (stereo unspecified) | i | 1.2
COC(=O)c1cc(NC(=O)c2nccnc2C(=O)O)cc(C(=O)OC)c1 | i | 1.5
O=C(c1cccn2c(=O)c3ccccc3nc12)N1CCN(Cc2ccc3c(c2)OCO3)CC1 | i | -1.5
CCOC(=O)Cn1nc(C)c(NC(=O)CCc2ccc(OC)cc2)c1C | i | 2.2
CCNC(=O)NC(=O)C(C)On1nnc2ccc(S(=O)(=O)N(CC)CC)cc21 (stereo unspecified) | i | 0.18
COc1ccc(-c2cc(=O)oc3c(C)c(OCC(=O)N(C)C)ccc23)cc1 | i | -0.65
COc1ccc(S(=O)(=O)N(C)c2ccccc2)c2cccnc12 | i | -1.8
Cc1ccc(S(=O)(=O)CCC(=O)c2ccc(O)cc2O)cc1 | i | 1.2
CCOc1c(CNCCNC(=O)c2nonc2N)cccc1OC | i | -0.89
CCOc1ccc(/C(O)=C2/C(=O)C(=O)N(c3ccccn3)C2c2ccc(Cl)cc2)c(C)c1 (stereo unspecified) | i | 0.52
